LANA-H2A inh – blocks KSHV LANA binding to histone H2A/H2B; inhibition, % (concentration not given with the values); actives 0.6% (n = 320,000); cell-free LANA-H2A/H2B peptide, fluorescence polarization; Q9QR71; AID 2629; in the data active means inhibition mostly above about 10%, no sharp cut-off; inactive means mostly below about 6.7%;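 further: stock transfer was 7.5 nL into about 10 µL; 0% = median of vehicle wells and 100% = median of positive control wells; one replicate is shown; the record names a cut of 25% in any replicate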
Target sequence (Q9QR71 whole entry, looked up): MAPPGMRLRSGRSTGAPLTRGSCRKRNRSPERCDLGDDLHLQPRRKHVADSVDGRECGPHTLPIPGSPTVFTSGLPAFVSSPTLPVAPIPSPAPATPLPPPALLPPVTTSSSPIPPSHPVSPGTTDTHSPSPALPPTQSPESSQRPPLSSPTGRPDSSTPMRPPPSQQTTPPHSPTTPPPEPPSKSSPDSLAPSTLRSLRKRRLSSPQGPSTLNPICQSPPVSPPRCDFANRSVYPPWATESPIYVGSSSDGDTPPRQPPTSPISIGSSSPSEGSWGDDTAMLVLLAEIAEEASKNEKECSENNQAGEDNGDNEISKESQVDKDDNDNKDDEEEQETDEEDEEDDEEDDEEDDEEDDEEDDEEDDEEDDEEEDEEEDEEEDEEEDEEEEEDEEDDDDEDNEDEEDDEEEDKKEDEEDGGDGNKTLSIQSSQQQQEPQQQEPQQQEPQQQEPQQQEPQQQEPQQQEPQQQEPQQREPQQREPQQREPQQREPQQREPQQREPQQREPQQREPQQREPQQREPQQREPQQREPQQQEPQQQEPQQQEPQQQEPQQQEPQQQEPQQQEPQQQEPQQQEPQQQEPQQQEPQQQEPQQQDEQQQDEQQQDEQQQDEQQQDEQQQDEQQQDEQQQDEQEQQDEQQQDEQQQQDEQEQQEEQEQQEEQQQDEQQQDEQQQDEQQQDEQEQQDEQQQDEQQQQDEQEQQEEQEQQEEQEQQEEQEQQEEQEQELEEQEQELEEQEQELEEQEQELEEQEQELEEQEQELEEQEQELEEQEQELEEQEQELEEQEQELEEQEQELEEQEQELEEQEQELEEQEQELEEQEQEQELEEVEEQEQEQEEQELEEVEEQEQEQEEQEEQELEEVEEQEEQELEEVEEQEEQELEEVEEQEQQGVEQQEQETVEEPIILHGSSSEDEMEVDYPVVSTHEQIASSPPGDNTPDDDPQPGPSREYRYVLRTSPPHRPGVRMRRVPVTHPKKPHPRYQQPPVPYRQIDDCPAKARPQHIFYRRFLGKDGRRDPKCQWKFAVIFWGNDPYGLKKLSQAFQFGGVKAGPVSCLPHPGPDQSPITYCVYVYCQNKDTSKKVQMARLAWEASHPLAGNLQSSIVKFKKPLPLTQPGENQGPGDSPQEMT
B2AR ag – human beta-2 adrenergic receptor agonism by FAP | P07550 | Am2.2-beta2AR cells, FAP receptor internalization, flow cytometry; reference of the scale not given here | response, % (test concentration not listed) | actives 0.43% (n = 340,000) | AID 504454;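 active means response above a set limit, near 3 SD of response in nonfluorescent compounds, cut at about 42% in these data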;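 further: stock transfer was 100 nL into about 11 µL; a reference agonist was the positive control; negative values mostly stem from fluorescent compounds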
Beta apoptosis – blocks beta cell apoptosis. INS-1E cytokine-induced death, ATP luminescence, 48 h; percent of positive-control rescue, neutral wells zero. protection from apoptosis, % (concentration not given with the values). actives 0.8% (n = 300,000). AID 435005;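 active means all replicates at 75% or more, or half of them and the mean; inconclusive means half reach 75% but not the mean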;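 further: 0% = cytokine-treated negative control wells and 100% = positive control rescue; higher means more ATP so stronger rescue from cytokine killing; wells of about 40 µL received 100 nL stock; the first replicate is given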
T cruzi inh – blocks replication of Trypanosoma cruzi; AID 1885; T. cruzi beta-gal in NIH3T3, luminescence, 90 h; actives 1.4% (n = 300,000); inhibition, % (concentration not given with the values);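 active means mean inhibition across valid replicates above about 55%, limit read from the data; inconclusive means mean below that limit but half or more replicates reach it; inactive means mean below it, under half of replicates reach it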;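 further: signal also drops with host cell toxicity which is not excluded here; 0% = plate median of DMSO wells and 100% = zero luminescence signal; higher percent means less beta-gal luminescence so fewer parasites; stock transfer was 50 nL into about 50 µL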
Calb FLC – affects C. albicans growth with fluconazole; actives 0.57% (n = 300,000); growth inhibition, % (no concentration beside the values); C. albicans CaCi-2 (fluconazole-resistant clinical isolate) + fluconazole, Alamar Blue growth, 48 h; AID 1979;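 active means most replicates above 75%; inconclusive means exactly half above 75%; inactive means most below 75%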;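 further: all wells also contain fluconazole at 8 µg/ml as a sub-toxic cotreatment; 0% = median of DMSO wells and 100% = median of geldanamycin control wells; wells of about 8 µL received 7.5 nL stock; the first replicate is given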
ALR H2O2 inh – human ALR oxidase inhibition via reduced H2O2; actives 3.8% (n = 290,000); P55789; inhibition, % (test concentration not listed); AID 485317; purified ALR, DTT oxidation, H2O2 HRP-luminol luminescence;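 active means mean and each replicate at 75% or more; inconclusive means only one of the two met; inactive means neither met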;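 further: stock transfer was 7.5 nL into about 7.5 µL; 0% = neutral wells and 100% = wells with inactivated enzyme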
Ecoli rRNA inh – inhibitors of bacterial rRNA selective over humanized ribosomes; E. coli WT GFP vs humanized-ribosome RFP mutants, fluorescence, 24 h; active compounds read low; DMSO median 0, no signal -100; GFP signal change (wild-type ribosome), % (test concentration not listed); actives 1.6% (n = 350,000); AID 720706;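 active means significant combined selectivity score with lowered wild-type GFP, culture density cut under 30%, mutant RFP and density less affected; inactive means any of these conditions unmet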; further: one replicate is shown; some compounds called inactive have numbers as strong as hits
Bfl-1 A1 inh – inhibitors of the anti-apoptotic protein A1, read as caspase activation; caspase activation, % (no concentration beside the values); MEF A1-2A-BIM cells, Caspase-Glo 3/7 luminescence, 3 h; percent of clofoctol response, vehicle zero; AID 2462; actives 0.066% (n = 330,000);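 active means over half of replicate activation scores above 10%, or exactly half above 10 with the replicate mean above 10; inconclusive means replicate mean below 10 yet half the replicates above 10; inactive means over half of replicates below 10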;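 further: wells of about 30 µL received 50 nL stock; many hits fall short of the cut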
Ecoli rRNA inh OD600 – further read-out of Ecoli rRNA inh, marked with its call; OD600 change, %; measured here: OD600 growth;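 optical density of the mix in the first replicate; 0 = DMSO median and -100 = no signal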
Ecoli rRNA inh RFP – also measured in Ecoli rRNA inh; calls as there; RFP signal change, %; measured here: RFP humanized mutant strains;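 first replicate; 0 = DMSO median and -100 = no signal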
Active calls of the source: *; ? = inconclusive; · = no result given.

Structure	LANA-H2A inh	B2AR ag	Beta apoptosis	T cruzi inh	Calb FLC	ALR H2O2 inh	Ecoli rRNA inh	Ecoli rRNA inh OD600	Ecoli rRNA inh RFP	Bfl-1 A1 inh
CN(Cc1ccc(F)cc1)C(=O)c1cccc(S(=O)(=O)N2CCN(Cc3ccccc3)CC2)c1	-0.9	-2.9	·	-4.9	-2.5	-16.0	-11.0	-47.8	1.2	1.3
OCC[C@H]1C[C@@H](O)[C@H](O)[C@@]2(CCc3ccccc3CO2)O1	3.3	0.4	0.3	·	·	2.8	7.8	21.3	0.2	0.0
CCOC(=O)CC1C(=O)NCCN1C1CCCC1 (stereo not drawn)	0.9	-4.7	-5.7	-3.9	8.5	·	6.6	-13.4	-2.1	1.3
N#Cc1ccc(CSCC(=O)O)cc1	-1.0	-0.4	-1.2	-14.4	6.9	-26.4	9.2	-4.2	1.2	-0.2
O=C(CCNC(=O)c1ccc(Cl)cc1)Nc1ccncc1	0.4	0.7	6.0	0.9	3.2	4.6	12.5	11.6	0.8	1.2
CC(C)c1ccc(OCC(=O)NN2C(=O)c3ccccc3C2=O)c(Br)c1	2.2	2.8	·	-15.2	-7.2	8.7	-5.7	-8.2	-1.8	0.6
O=C(COc1cc2oc(=O)c3c(c2cc1Cl)CCC3)NCc1ccccn1	-1.3	0.7	-1.3	-38.0	-16.4	-7.4	15.5	12.5	18.0	0.8
O=C(O)C1CCCCC1C(=O)Nc1cc(Cl)ccc1Cl (stereo not drawn)	-0.2	·	4.1	0.2	23.3	6.8	·	·	·	-0.4
Cc1ccc(-c2nnc3sc(-c4ccncc4)nn23)cc1	-4.6	-14.7	7.0	10.4	-10.0	-9.8	·	·	·	-1.3
C#CCOCCOCCOCCNc1nc(N2CCN(C(=O)[C@H]([C@@H](C)CC)n3cc([C@@H](N)CO)nn3)CC2)nc(N2CCN(C(=O)[C@H](Cc3cc4ccccc4[nH]3)n3cc([C@@H](N)Cc4ccc(O)cc4)nn3)CC2)n1	-1.7	·	0.3	-18.6	24.6	-1.2	·	·	·	-2.3
C=CCSc1nccc(=O)[nH]1	0.4	0.7	-5.3	-9.7	-16.4	-6.4	7.3	17.4	8.0	-0.5
Cc1ccc(NC(=O)CSCC(=O)NCc2ccco2)cc1	4.6	-4.2	-3.2	-7.9	-4.0	34.2	6.2	10.7	-1.5	-0.2

Record cards, from the list above.
Listed for `O=C(CCNC(=O)c1ccc(Cl)cc1)Nc1ccncc1` : LANA-H2A inh = 0.4; B2AR ag = 0.7; Beta apoptosis = 6.0; T cruzi inh = 0.9; Calb FLC = 3.2; ALR H2O2 inh = 4.6; Ecoli rRNA inh = 12.5; Ecoli rRNA inh OD600 = 11.6; Ecoli rRNA inh RFP = 0.8; Bfl-1 A1 inh = 1.2
Listed for `CC(C)c1ccc(OCC(=O)NN2C(=O)c3ccccc3C2=O)c(Br)c1` : LANA-H2A inh = 2.2; B2AR ag = 2.8; Beta apoptosis = ·; T cruzi inh = -15.2; Calb FLC = -7.2; ALR H2O2 inh = 8.7; Ecoli rRNA inh = -5.7; Ecoli rRNA inh OD600 = -8.2; Ecoli rRNA inh RFP = -1.8; Bfl-1 A1 inh = 0.6

Other entries follow.
Structure	LANA-H2A inh	B2AR ag	Beta apoptosis	T cruzi inh	Calb FLC	ALR H2O2 inh	Ecoli rRNA inh	Ecoli rRNA inh OD600	Ecoli rRNA inh RFP	Bfl-1 A1 inh
CCC1(C)Cc2c(sc3nc(SC)n(Cc4ccccc4)c(=O)c23)CO1 (stereo not drawn)	4.4	-2.0	19.7	20.9	1.6	·	15.3	10.4	2.4	-1.6
Cc1cc(C(C)(C)C)oc1C(=O)Nc1ccc(CC(=O)O)cc1	0.0	-1.8	0.7	2.0	-3.5	7.7	·	·	·	1.3
CCOC(=O)C1=C(c2ccccc2)NC(=O)NC1c1ccc(OC)c(OC)c1 (stereo not drawn)	1.3	8.6	-11.4	-12.3	10.6	-4.2	12.1	5.0	5.2	-0.3
CSCCC(NS(=O)(=O)/C=C/c1ccccc1)C(=O)NCCc1ccc(S(N)(=O)=O)cc1 (stereo not drawn)	-1.6	1.9	-1.6	-6.4	-6.3	1.3	-2.0	0.3	-7.9	0.8
O=C(CC(c1ccco1)C1CCCCC1=O)c1ccco1 (stereo not drawn)	-3.5	-0.5	-2.0	-8.8	-5.7	15.6	·	·	·	0.3
COc1ccc(N(CC(=O)NCCSCc2c(F)cccc2Cl)S(C)(=O)=O)cc1OC	1.2	-4.6	4.4	-5.0	21.6	-4.1	2.6	2.4	-2.2	-0.3
CCCCOc1ccc(CN2CCSCC2)cc1	4.3	-7.8	-5.5	2.8	-5.3	-2.6	-18.1	-14.8	-1.5	-1.2
Cc1nn(C)c(C)c1NS(=O)(=O)c1ccc(N2CCCC2=O)cc1	-3.8	-3.0	3.5	-7.3	-21.6	-2.8	22.9	3.2	0.1	0.1
O=C1CC(CSc2ccc(Cl)cc2)=NN1	0.3	-4.6	-6.5	-4.0	4.3	-27.6	-2.4	4.4	2.4	-0.7
COc1cccc(/C=N/NC(=O)CO/N=C(\C)c2cccs2)c1OC	-0.3	-5.1	-0.6	7.4	5.7	-2.6	-26.6	-24.3	2.0	0.4
O=C(Nc1ncc(Cc2cccc(C(F)(F)F)c2)s1)c1ccc(-c2cccc([N+](=O)[O-])c2)o1	2.8	-6.9	13.7	61.8*	-4.6	-1.0	16.4	15.4	-9.9	-0.4
Cc1cc(C(F)(F)F)nc2c(Cl)c(C(C)(C)C)nn12	-5.1	-4.1	6.4	-8.6	-9.6	4.2	6.1	2.5	-0.7	-0.8

(continued)
Structure	LANA-H2A inh	B2AR ag	Beta apoptosis	T cruzi inh	Calb FLC	ALR H2O2 inh	Ecoli rRNA inh	Ecoli rRNA inh OD600	Ecoli rRNA inh RFP	Bfl-1 A1 inh
Cc1ccc(SC(=O)COc2ccccc2C)cc1	1.8	4.5	-4.3	7.2	-6.3	98.8*	·	·	·	0.5
O=C(NCc1nc2ccccc2[nH]1)C1=C[C@H](c2ccccc2)C[C@H](OCCCCO)O1	7.8	-6.5	3.2	2.2	-11.0	-3.6	7.6	2.5	1.3	1.6
O=C(CCCn1cc([N+](=O)[O-])cn1)Nc1cccnc1	5.5	-0.6	-1.0	-0.4	16.0	-3.1	3.6	2.1	-4.6	0.4
Cc1csc(NC(=O)[C@@H]2CCCN2C(=O)c2cccs2)n1	-8.7	8.6	1.6	-7.0	-4.5	-3.9	3.9	8.5	0.4	0.4
CCOC(=O)c1nc2cc3n(c(CC(C)C)c-2c1C)CC(C)=C3C	0.7	-6.2	10.4	28.0	-16.9	-6.3	·	·	·	-0.9
CN(CC(=O)Nc1c(Cl)cccc1Cl)C(=O)c1ccc2nc[nH]c2c1	2.5	1.7	-2.0	-6.0	6.9	-25.9	6.4	14.3	-2.3	0.1
O=C(Nc1ccc(N2CCCC2)c(Cl)c1)c1cccc(-c2cc3ccccc3oc2=O)c1	-2.9	61.2*	-13.9	15.8	8.0	·	-7.1	25.4	10.8	-0.2
O=C(CN1C(=O)COc2ccc(Cl)cc21)Nc1ccc(N2CCOCC2)cc1	1.2	11.5	4.7	2.4	-14.4	-1.7	-3.3	-6.9	-0.1	0.3
O=C(CN1CCN(S(=O)(=O)N2CCCCCC2)CC1)Nc1ccc(Br)cc1	4.6	0.6	-0.5	10.4	0.1	-16.3	2.7	0.1	1.8	1.8
CC1CCCC(C)N1C(=O)COC(=O)/C=C/c1ccco1 (stereo not drawn)	-2.8	9.1	-3.5	·	·	-6.4	·	·	·	0.8
O=C(Nc1cccc2c1CCCC2)c1ccc(F)cc1	2.1	-6.4	1.7	-8.2	-3.5	-21.6	-0.6	10.3	-0.4	1.5
CC(=O)N1CC(C)Sc2ccc(S(=O)(=O)NCCc3cccc(C)c3)cc21 (stereo not drawn)	-9.1	2.5	8.4	2.7	0.9	1.0	-36.6	-34.8	-4.5	1.3

Continuation.
Structure	LANA-H2A inh	B2AR ag	Beta apoptosis	T cruzi inh	Calb FLC	ALR H2O2 inh	Ecoli rRNA inh	Ecoli rRNA inh OD600	Ecoli rRNA inh RFP	Bfl-1 A1 inh
O=C1c2ccccc2-c2c1cccc2C(=O)N1CCCCC1	0.2	1.0	-1.5	6.3	-1.9	-1.4	·	·	·	?
Cc1cc2c(cc1C)N(Cc1ccc(Cl)cc1)C1=NCCCN12	-3.0	20.5	4.2	27.2	-7.7	0.2	-47.1	-58.4	-12.4	0.3
Cc1ccc(NC(=O)Nc2ccc3c(c2)OCO3)c(Br)c1	-6.5	-3.4	0.5	25.0	-14.1	-7.6	3.0	12.3	0.8	1.3
O=c1c2ccccc2ncn1Cc1ccc(Cl)cc1	4.0	-3.7	-7.0	-1.4	-10.7	·	·	·	·	?
CN(C)CCN(Cc1ccco1)S(=O)(=O)c1csc(C(N)=O)c1	0.3	1.2	-1.8	-5.7	-3.2	-1.9	5.0	9.6	-1.5	1.1
O=C(/C=C/Nc1ccccc1)C(F)(F)F	-2.4	-3.2	-0.3	11.4	10.7	15.0	8.8	9.3	1.7	-1.0
CC(C)Oc1ccc(CNC(=O)c2ccc3nc(N4CCOCC4)sc3c2)cc1	2.1	-4.6	0.2	16.1	0.7	-1.2	6.1	9.4	-3.3	0.1
COc1cc(S(=O)(=O)n2nnc3ccccc32)c(OC)cc1Cl	-1.1	14.7	0.3	-28.1	3.0	-4.7	·	·	·	-0.2
CCOc1ccc(N(C(=O)c2ccc(S(=O)(=O)N3CCCC3)cc2)C2C=CS(=O)(=O)C2)cc1 (stereo not drawn)	2.1	2.5	5.8	-18.1	0.0	16.0	1.7	-4.9	1.4	0.5
COc1ccc2nc(-c3ccc(Cl)cc3)cc(C(=O)O)c2c1	2.3	9.8	-1.7	4.6	2.9	-1.8	-33.0*	-15.6*	-2.3*	0.1
COc1cc2c(cc1OC)C(c1cc3cc4c(cc3[nH]c1=O)OCO4)N(C(=O)C1CC1)CC2 (stereo not drawn)	1.0	1.8	9.2	-1.3	0.3	-2.6	8.0	3.7	-3.7	0.4

Single values from the entries so far:
O=C(Nc1cccc2c1CCCC2)c1ccc(F)cc1 @ Ecoli rRNA inh = -0.6
CCC1(C)Cc2c(sc3nc(SC)n(Cc4ccccc4)c(=O)c23)CO1 (stereo not drawn) @ B2AR ag = -2.0
O=C(Nc1ncc(Cc2cccc(C(F)(F)F)c2)s1)c1ccc(-c2cccc([N+](=O)[O-])c2)o1 @ B2AR ag = -6.9
Cc1csc(NC(=O)[C@@H]2CCCN2C(=O)c2cccs2)n1 @ Beta apoptosis = 1.6

Not all compounds are listed; rates above refer to the full screens.
